Source: PubChem
VACV Venus inh: vaccinia inhibition (Venus reporter); Vaccinia virus Venus reporter expression, fluorescence; Potency, µM (titrated, usually from 36.5 µM), for the others: top-dose activity change, negative = inhibition, actives largely listed as inhibitors; 330,000 tested, 0.46% active; AID 720580; active means well fitted inhibition curve with a large enough effect; inconclusive means small, poorly fitted or top-dose-only effect; inactive means no such curve, though single readings can be large or run the other way; tested in A549 cells; note: nearly all actives have a fitted effect of over 30% in size; inactives centre near -10
Vaccinia mCherry: vaccinia inhibition (mCherry reporter); 310,000 tested, 0.63% active; Vaccinia virus mCherry reporter infection, fluorescence; about a quarter of the inactives have no number; Potency, µM (doses to about 36.5 µM), inactives show at the highest dose activity change, negative = inhibition, hits mostly inhibitors; active = well fitted inhibition curve with a large enough effect; inconclusive = small, poorly fitted or top-dose-only effect; inactive = no such curve, though single readings can be large or run the other way; tested in A549 cells; note: nearly all actives have a fitted effect of over 35% in size; inactives centre near -10
* = called active by the depositor; i = inactive; ? = inconclusive; · = no result given; & = joins results of further samples; [ ] = remark or other dose. % is set by controls: 0 for no effect and ±100 for the full control effect; potency is the fitted concentration of half-maximal effect.

Compound,VACV Venus inh,Vaccinia mCherry
CCOc1ccc(OCCC(=O)OCC(=O)NNC(=O)c2ccccc2)cc1,-10%,-2%
CCCOP(=O)(c1ccc(N(C)C)cc1)C(O)c1ccc(Cl)cc1Cl (configuration not stated),-25%,i
CCOc1ccccc1NC(=O)C1CCCC1,-4%,-8%
Cn1c(SCC(=O)NC(c2ccccc2)c2ccccc2)nnc1-c1cccs1,-17%,-1%
Cc1cn([C@H]2C[C@H](O)[C@@H](CCC(=O)NCc3ccc(N(C)C)cc3)O2)c(=O)[nH]c1=O,-1%,3%
Cc1ccc(NC(=O)c2oc3ccccc3c2NC(=O)C2CCCCC2)cc1,-6%,-10%
CCCCNC(=O)C[C@@H]1C[C@@]2(C(=O)OC)CCCCC=C2N(CCC2=CCCCC2)C1=O,-13%,20%
O=C(Nc1cnn(Cc2ccccc2)c1)c1nc2ncccn2n1,-9%,·
Cc1cc(C)c(NC(=O)CSc2ccnc(=O)[nH]2)c(C)c1,2%,-2%
CC(OC(=O)Cc1ccc(Br)cc1)C(=O)NC1CCCCC1C (configuration not stated),-7%,-10%
CCc1noc(C)c1C(=O)Nc1nc(-c2ccc(Cl)cc2Cl)cs1,-29%,?
CC1(C)CC(NCc2cccc([N+](=O)[O-])c2)CC(C)(C)N1,-6%,-5%
COc1ccc(Br)cc1C(=O)N/N=C/c1ccc([N+](=O)[O-])cc1,-4%,i
COc1cc(-c2nc(CN(C)Cc3nnc(C)o3)c(C)o2)ccc1F,-6%,-2%
Cc1cc(C(=O)OC(C)C(=O)Nc2nc(-c3ccccc3)cs2)c(C)o1 (configuration not stated),22%,11%
CC(=O)/C(N=Nc1cc2c(cc1[N+](=O)[O-])OCCO2)=C(\C)O,0%,0%
COc1ccc([N+](=O)[O-])cc1N(CC(=O)NCC1CCCO1)S(C)(=O)=O (configuration not stated),-1%,-4%
O=C(NCC1CCN(Cc2ccccc2F)CC1)Nc1cc(F)ccc1F,-9%,-15%
Cc1cc(NS(=O)(=O)c2ccc(NC(=O)C(F)(F)F)cc2)nc(C)n1,-4%,i
COc1ccc(C(=O)Nc2ccc(S(=O)(=O)Nc3cnc4ccccc4n3)cc2)cc1,-20%,-5%
COc1ccc(-c2nnc(SCC(=O)N(C)C3CCS(=O)(=O)C3)n2C(C)C)cc1 (configuration not stated),-11%,i
CCCNC(=O)N1CCC2(CC1)OCCO2,-16%,i
COc1ccccc1N(CC(=O)NCc1cccnc1)S(C)(=O)=O,-11%,-9%
CN(Cc1nnc(SCC(=O)NCCc2ccccc2)n1C)S(=O)(=O)c1ccccc1,-22%,·
CCN(CC)S(=O)(=O)c1ccc2c(c1)c(=O)c(C(=O)N1CCN(c3ccccc3OC)CC1)cn2C,5%,1%
COc1ccc(C(=O)Nc2ccccc2C(=O)N2CCCCCC2)cc1,2%,i
COc1ccccc1Oc1ccc2c(c1)C(=O)N(c1cccc(O)c1)C2=O,-6%,-15%
COc1ccc(NC(=O)CCNS(=O)(=O)c2ccc3c(c2)CCCC(=O)N3)cc1Cl,1%,-17%
COc1cccc(CNC(=O)c2sc3nc[nH]c(=O)c3c2C)c1,-16%,-13%
NC(=O)/C(=C\c1cccnc1)NC(=O)c1ccccc1,-13%,i
Cc1sc(NC(=O)CN2CCN(c3ccccn3)CC2)c(C#N)c1C,-4%,-4%
O=C(CCNC(=O)c1ccc([N+](=O)[O-])cc1)Nc1cc(C(F)(F)F)ccc1N1CCOCC1,-2%,-14%
Cc1cccc(-c2nc3scc(CCNS(=O)(=O)c4ccc(F)cc4C)n3n2)c1,2%,-4%
O=C(NN=Cc1ccccc1)NN=Cc1ccccc1,5%,-9%
O=C(COc1cccnc1[N+](=O)[O-])NCc1cccs1,-4%,-4%
Cc1ccc(NC(=O)CN2C(=O)CC(c3ccc(C)c(C)c3)=Nc3ccccc32)cc1,-8%,-7%
CCN1CCN(c2ccc([N+](=O)[O-])cc2C(=O)c2ccc(Cl)cc2)CC1,?,-15%[1.46 µM]
CCC(Sc1nnc(-c2ccco2)n1C)C(=O)Nc1nnc(C)s1 (configuration not stated),5%,-8%
COc1ccc2c3c1O[C@H]1C[C@@H](O)C=C[C@@]31CCN(C)C2,-19%,-24%
O=C(CC1C(=O)NCCN1Cc1c(F)cccc1Cl)NC1CCCC1 (configuration not stated),-8%,i
CC(OC(=O)/C=C/c1ccc(Br)cc1)C(=O)N1CCOCC1 (configuration not stated),?,?
COc1cc(OC)c(Nc2ncnc3onc(-c4cccc(Cl)c4)c23)cc1Cl,-12%,-3%
S=c1[nH]nc(C2CCCCC2)n1Cc1ccccc1,-7%,-3%
COc1ccc(NCc2cc3cc4c(cc3n(CC(=O)Nc3cc(C)ccc3C)c2=O)OCCO4)cc1,-26%,?
CCOc1ccc(NS(=O)(=O)c2ccc(C(=O)NC3CCN(Cc4ccccc4)CC3)cc2)cc1,-27%,-12%
CCCSc1cc(NCCOC(C)=O)c([N+](=O)[O-])c2nonc12,-4%,i
Cn1nc(CC(=O)NC2CCCCC2)c2ccccc2c1=O,-9%,-6%
COc1c(C)oc2cc(O)ccc2c1=O,-11%,-5%
COc1ccc(/C=N/NS(=O)(=O)c2ccc(F)cc2)cc1CN1CCSCC1,-4%,i
O=C(NC1CCCN(Cc2ccc(Cl)cc2)C1)C1CCC1 (configuration not stated),-8%,-21%
CCOC(=O)c1cc(-c2ccc(C)cc2)n(CC(=O)NC2CCCCCC2)c1C,-9%,-9%
COc1ccc(C(C)=O)cc1CC(=O)N(Cc1ccccc1)c1ccccc1,-8%,-18%
Cc1nc2sc(C(c3cccc(F)c3)N3CC(C)OC(C)C3)c(O)n2n1 (configuration not stated),-6%,-8%
NC(=O)CC(NC(=O)Cc1cccc2ccccc12)c1ccc(NCc2ccc(F)cc2)c([N+](=O)[O-])c1 (configuration not stated),?,-22%
Cc1c(CCC(=O)NCCCn2ccnc2)c(=O)oc2c(C)c3occ(C(C)(C)C)c3cc12,?,?
O=C(CCn1c(=S)[nH]c2ccccc2c1=O)Nc1ccc(F)cc1,-12%,i
O=C(C1CC1)N1CCc2cc(S(=O)(=O)NCC3COc4ccccc4O3)ccc21 (configuration not stated),-15%,-16%
O=C1COc2ccc(C(=O)COc3ccc([N+](=O)[O-])cc3)cc2N1,-3%,i
Cc1cc(C)n2nc(CNS(=O)(=O)c3ccc(F)cc3)nc2n1,-19%&-6%,-15%
CCn1nnc2cc(C(=O)N(CCOC)CC(=O)Nc3cccc(C)c3C)ccc21,4%,-13%

Further results follow:
Compound,VACV Venus inh,Vaccinia mCherry
COc1ccc(N2CC(NC(=O)c3cc4ccccc4o3)CC2=O)cc1OC (configuration not stated),-11%,0%
CC(C)/C=N/NC(=O)c1cccc(N2CCCC2=O)c1,-4%,-11%
Cn1c(COc2ccccc2)nnc1SCCSc1nnc(COc2ccccc2)n1C,0%,-1%
COc1cc(/C=N/N(c2ccccc2)c2ccccc2)ccc1O,?,?
CC(C)Cn1c(N)c(C=O)c(=O)n(C)c1=O,-4%,-8%
O=C1c2cccc3cc([N+](=O)[O-])cc(c23)C(=O)N1CC1CCCO1 (configuration not stated),4%,7%
O=C1CN(C(=O)c2ccco2)C(c2ccccc2)c2cc(Cl)ccc2N1 (configuration not stated),-20%,?
NCC(O)COc1cccc2ccccc12 (configuration not stated),-9%,-15%
CCOc1ccc(C2Nc3c(C)cccc3-c3cc(C)nn32)cc1 (configuration not stated),-10%,?
CCc1c(C)nc(SCC(=O)NC2CCCC2)[nH]c1=O,17%,-18%
CCOc1ccc(-c2nonc2NC(=O)c2oc3cc(Br)ccc3c2C)cc1,?,?
CCN(C(=O)COc1ccc2ccc(=O)oc2c1)C1CCCCC1,-8%,-7%

Two entries from above, with values under each structure.
Values run as follows: VACV Venus inh, Vaccinia mCherry
O=C1CN(C(=O)c2ccco2)C(c2ccccc2)c2cc(Cl)ccc2N1 (configuration not stated)
  -20%, ?
COc1ccc(N2CC(NC(=O)c3cc4ccccc4o3)CC2=O)cc1OC (configuration not stated)
  -11%, 0%

Retrieved by structure from the list above, 3 records:
Compound,VACV Venus inh,Vaccinia mCherry
CCN(C(=O)COc1ccc2ccc(=O)oc2c1)C1CCCCC1,-8%,-7%
COc1cc(/C=N/N(c2ccccc2)c2ccccc2)ccc1O,?,?
CC(C)Cn1c(N)c(C=O)c(=O)n(C)c1=O,-4%,-8%

Carrying on.
Compound,VACV Venus inh,Vaccinia mCherry
CCn1c(=O)c(C(=O)NNC(=O)c2ccccc2F)c(O)c2ccccc21,-12%,?
Cc1nn(CC(=O)NCc2ccccc2Cl)c(=O)c2nn(-c3ccccc3)c(C)c12,-5%,-16%
Cn1c2c(c(=O)n(C)c1=O)C(c1ccc(F)cc1)C(C#N)=C(N)O2 (configuration not stated),-4%,3%
CC(Cc1ccccc1)NC(=O)Cc1ccc(N(C)C)cc1 (configuration not stated),-20%,-2%
CCOC(=O)COc1ccc2c3c(c(=O)oc2c1C)CCC3,-9%,i
COCCn1c(SCC(=O)NCCCN2CCCC2=O)nc2sc3c(c2c1=O)CCCC3,-3%,-15%
COc1ccc(CNC(=O)CCn2c(=O)[nH]c3ccccc3c2=O)cc1,-16%,-4%
O=C1C=C(c2cccc(Cl)c2O)C[C@@H](c2ccc(F)cc2)C1,11%,-12%
Cc1ccc(N2C(=O)N(CC(=O)C(C)(C)C)c3ccccc3S2(=O)=O)cc1C,-19%,1%
O=C(NCCCN1CCOCC1)c1sc2ccccc2c1Cl,-17%,i
O=C(Nc1nccs1)c1ccc(Cl)c(S(=O)(=O)N2CCOCC2)c1,-25%,·
CC(=O)c1c(C)[nH]c(C(=O)CSc2nnc(NC3CC3)s2)c1C,-12%,-8%
O=C(O)c1cn(-c2ccccc2)c(=O)c2ccccc12,-13%,-6%
NS(=O)(=O)c1cccc(NS(=O)(=O)c2ccc(/C=C/C(=O)OCC(=O)c3ccc(Br)cc3)cc2)c1,-13%,2%
Cc1cc(C)nc(NS(=O)(=O)c2ccc(CC(C)C)cc2)c1,-4%,-8%
CNC(=O)NNC(=O)c1onc(-c2c(Cl)cccc2Cl)c1C(=O)OC,-8%,i
Cc1cccc(-c2oc3ccc(-c4ccc5c(c4)OCO5)cc3c2/C=C/c2ccc(N)cc2)c1,-19%,-8%
Cc1[nH]n2c(=O)cc(Cc3ccccc3)nc2c1C#N,-18%,-5%
COc1cc(C)c(COc2ncnc3ccccc23)cc1OC,7%,-3%
COc1cccc(CN=CC2=C(O)CC(C)(C)CC2=O)c1OC,-17%,-3%
COc1ccccc1NC(=O)C(C)OC(=O)C1CC(=O)N(Cc2ccco2)C1 (configuration not stated),-11%,-12%
COc1ccccc1N(Cc1ccccc1)S(=O)(=O)c1cccc(C(=O)O)c1,-5%,i
CCCc1nnc(NC(=O)C2CCN(C(=O)C3CC(=O)N(c4ccc(C)cc4)C3)CC2)s1 (configuration not stated),-18%,i
CSc1nc2sc3c(c2c(=O)n1CC(C)C)CC(C)(C)OC3,-3%,-9%

Given with two lines to a compound: part of the list above
Values run as follows: VACV Venus inh, Vaccinia mCherry
- COc1cccc(CN=CC2=C(O)CC(C)(C)CC2=O)c1OC
→ -17%, -3%
- COc1ccccc1NC(=O)C(C)OC(=O)C1CC(=O)N(Cc2ccco2)C1 (configuration not stated)
→ -11%, -12%
- Cc1[nH]n2c(=O)cc(Cc3ccccc3)nc2c1C#N
→ -18%, -5%
- NS(=O)(=O)c1cccc(NS(=O)(=O)c2ccc(/C=C/C(=O)OCC(=O)c3ccc(Br)cc3)cc2)c1
→ -13%, 2%

(list continues)
Compound,VACV Venus inh,Vaccinia mCherry
O=C(Nc1cccc(C(F)(F)F)c1)c1cnc2n(c1=O)CCS2,-5%,8%
CCn1c(Cc2ccccc2)nnc1SCC(=O)Nc1ccc(N2CCOCC2)c(Cl)c1,-29%,·
CCOC(=O)c1nn(-c2ccc(C)cc2)c(=O)cc1OCC(=O)Nc1ccc(OC)cc1,-11%,-12%
CC1(C)CN=C(Nc2nc3ccccc3s2)S1,?,·
COc1ccc(-c2cc(NC=O)c3ncc(-c4ccc(C(C)=O)cc4)n3c2)cc1OC,?,?
Cc1ccc(C(=O)OCC(=O)NC(C)c2ccccc2)cc1C (configuration not stated),-22%,-4%
CC(=O)Nc1ccc(S[C@@H](CCN2CC[C@H](C(C)(C)C)CCC2=O)c2ccccc2)cc1,?,-23%
CC(C)Cc1nnc(NC(=O)C2CC(=O)N(c3ccc4c(c3)OCCO4)C2)s1 (configuration not stated),-12%,-3%
CSCCCNC(=S)Nc1ccc(N2CCOCC2)cc1,-1%,-4%
CCOc1ccccc1NC(=O)CSc1nccn1-c1ccc(Cl)cc1,-8%,-1%
COc1cc(C2C(C(=O)c3cccs3)=C(O)C(=O)N2CCN2CCOCC2)cc(OC)c1OC (configuration not stated),-2%,i
CCCOc1ccc(N2C(=O)CC(N(CCc3ccc(OC)cc3)C(=O)c3cccc(F)c3)C2=O)cc1 (configuration not stated),-30%,·

Single values from the results shown:
For VACV Venus inh, CCOc1ccc(OCCC(=O)OCC(=O)NNC(=O)c2ccccc2)cc1 is listed with -10%
For VACV Venus inh, COc1ccc(N2CC(NC(=O)c3cc4ccccc4o3)CC2=O)cc1OC (configuration not stated) is listed with -11%
